Bioassay records deposited in PubChem BioAssay by several laboratories.
YopH PTP inh: YopH tyrosine phosphatase inhibitors, primary screen, biochemical, fluorescence Ex485/Em525; YopH tyrosine phosphatase [Yersinia enterocolitica]; inhibition, %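 (about 10 µM by stock and volumes)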; 140,000 compounds, 0.16% hits;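 active = inhibition of 50% or more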;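 note: controls were vehicle for no effect and minimum signal wells for full effect; inactives centre near -20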
Mtb H37Rv: M. tuberculosis H37Rv growth inhibitors, H37Rv strain (AID 1626); M. tuberculosis H37Rv growth inhibition; higher % means a stronger effect; inhibition, % at 10 µM; hits with a dose series show IC50 in µM; 220,000 compounds, 0.95% hits;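 active = confirmed in a dose series; inconclusive = inhibition above 80% but not taken into the dose series; inactive = below 80% or under 30% at every dose of the series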;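 note: bacteria incubated seven days before Alamar blue readout; 0% = bacteria only wells and 100% = bacteria with antibiotic wells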
Mtb betalactam: beta-lactam sensitization of Mtb H37Rv, H37Rv. 330,000 compounds, 0.27% hits. M. tuberculosis H37Rv growth with meropenem, percent inhibition; hits of this screen are not shown here. inhibition, % at 25 µM;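 active = about 74% or more and at least 40 points above the plate without the antibiotic, then above 30% in a dose series; inconclusive = first-round hits that could not be retested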;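 note: growth measured after seven days incubation then overnight dye step; 0% = bacteria only wells and 100% = bacteria with antibiotic; twin plates without the antibiotic show which effects depend on it; some results filed as inactive read as strong as hits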
Arbovirus anti: antivirals against arbovirus infection, primary screen, cell-based, full library, 10K replicate subset; arbovirus infection cell-based antiviral screen; inhibition, % at 10 µM; 200,000 compounds, 0.37% hits;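 active = inhibition from about 30%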;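 note: bluetongue infection of BSR cells; cell survival read as ATP light after 72 h; 0% = infected wells without compound and 100% = uninfected wells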
RecA splice inh: Mtb RecA intein splicing inhibitors, primary screen, biochemical, fluorescence, HTS; Protein RecA (Mycobacterium tuberculosis (strain ATCC 25618 / H37Rv)), P9WHJ3; cell-free RecA intein splicing; inhibition, %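 (about 9 µM by stock and volumes)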; 290,000 compounds, 0.75% hits; AID 2221, 2009; in the data active = inhibition above about 30%; inconclusive = no clear call, values can overlap the other calls;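 note: 0% = vehicle wells and 100% = reference inhibitor control wells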
Target sequence (P9WHJ3 whole entry, looked up, canonical isoform): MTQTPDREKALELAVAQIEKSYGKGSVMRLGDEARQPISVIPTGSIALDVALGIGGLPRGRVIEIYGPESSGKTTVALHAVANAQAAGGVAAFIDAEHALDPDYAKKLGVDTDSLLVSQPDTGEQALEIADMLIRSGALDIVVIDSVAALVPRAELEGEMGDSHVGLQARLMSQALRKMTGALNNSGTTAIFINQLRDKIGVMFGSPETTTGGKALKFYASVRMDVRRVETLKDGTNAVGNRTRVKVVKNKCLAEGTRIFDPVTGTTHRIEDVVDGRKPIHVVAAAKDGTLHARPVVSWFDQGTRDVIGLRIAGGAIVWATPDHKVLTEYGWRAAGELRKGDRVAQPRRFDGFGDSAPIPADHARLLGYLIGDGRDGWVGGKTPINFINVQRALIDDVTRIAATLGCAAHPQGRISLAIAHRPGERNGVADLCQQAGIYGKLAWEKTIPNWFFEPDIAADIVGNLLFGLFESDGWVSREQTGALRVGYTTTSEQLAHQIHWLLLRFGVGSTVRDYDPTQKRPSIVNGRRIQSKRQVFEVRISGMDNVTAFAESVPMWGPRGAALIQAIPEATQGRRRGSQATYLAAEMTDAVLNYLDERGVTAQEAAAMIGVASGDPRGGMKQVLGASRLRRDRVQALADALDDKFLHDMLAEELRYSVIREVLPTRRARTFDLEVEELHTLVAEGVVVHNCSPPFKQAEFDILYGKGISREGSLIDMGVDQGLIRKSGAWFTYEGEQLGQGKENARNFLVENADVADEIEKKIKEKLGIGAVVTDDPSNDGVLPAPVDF
Arbovirus anti repeat: also measured in Arbovirus anti; calls as there; inhibition, %; measured here: 10K subset replicate screen; many hits read low in the repeat;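 first of two repeat runs on a subset; 0% = infected and 100% = uninfected wells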
Numbers without * were called inactive; ? = inconclusive; · = not tested or not shown. Not all compounds are listed. The share of hits here may be higher or lower than overall.

SMILES | YopH PTP inh | Mtb H37Rv | Mtb betalactam | Arbovirus anti | RecA splice inh | others
COC(=O)C(C(=O)OC)=C(/C=C/C=C/N(C)C)N(C)C | -30 | -1% | -5 | 4 | -3.3
O=C(COc1cccnc1[N+](=O)[O-])Nc1ccc(S(=O)(=O)N2CCOCC2)cc1 | · | 6% | 1 | 18 | -8.5
Cc1c(NC(=O)C(C)n2cc([N+](=O)[O-])cn2)c(=O)n(-c2ccccc2)n1C (configuration not stated) | · | 4% | 0 | 5 | -1.3
O=C(Nc1ccc(S(=O)(=O)N2CCOCC2)cc1)c1ccc([N+](=O)[O-])o1 | · | 52% | 98 | · | -3.1
Cc1ccc(C(=O)NCCN2CCOCC2)cc1Cl | -40 | 3% | 0 | 8 | -0.5
Cc1cccc(OP(=O)(NCc2ccccc2)Oc2cccc(C)c2)c1 | -12 | 14% | 14 | -48 | 4.1
Brc1ccc(CNCC2CCCO2)cc1 (configuration not stated) | · | · | -1 | · | -1.0
O=C(NC(=S)Nc1ccccc1[N+](=O)[O-])c1ccco1 | · | 1% | 0 | 2 | -20
CCC/C(O)=C1\C(=O)CC(c2ccccc2)CC1=NC (configuration not stated) | -22 | -8% | 15 | -2 | -6.2
CCc1noc(C)c1C(=O)N1CCN(c2cccc(C)c2C)CC1 | · | · | 1 | · | -0.2
Cc1ccc(OCC(=O)NNC(=O)CSc2ncc(C#N)c(N)n2)cc1 | -5 | 0% | 2 | -2 | 0.6
Cc1cc(C)c2c(N)c(C(=O)c3ccccc3)oc2n1 | -35 | 2% | -4 | 3 | -1.2
CCN(C(=O)c1cnc(NC(C)C)cc1C(F)(F)F)c1ccc(Cl)cc1Cl | · | 2% | 1 | · | 6.2
O=C(NCCCN1CCCC1)c1cccc(N2CCCC2=O)c1 | 11 | 0% | 6 | 5 | -2.6
CCCCN(C(=O)CSc1nnc(Nc2ccc(C)c(C)c2)s1)c1c(N)n(Cc2ccccc2)c(=O)[nH]c1=O | 2 | 47% | 25 | -8 | -1.3
Cc1cc(NC(=O)CCc2ccc(-c3ccccc3)o2)no1 | · | · | -6 | · | -2.3
O=C(Cc1nnc(NC(=O)c2ccccc2)s1)N/N=C/c1ccco1 | -22 | 31% | 5 | 2 | -1.4
CC1=C(C(=O)NC2CCC(C)CC2)C2(CCC(C)CC2)OC1=O (configuration not stated) | -23 | 4% | -1 | -4 | -1.0
N#C/C(=C\c1ccc(OCc2ccc(Br)cc2)cc1)C(=O)Nc1cccc(C(=O)O)c1 | · | · | 67 | · | 19
NC(=O)CC(NC(=O)Cc1ccc(Br)cc1)c1ccc(NCCc2ccc(F)cc2)c([N+](=O)[O-])c1 (configuration not stated) | · | -2% | -2 | · | 2.3
Cc1ccc(S(=O)(=O)N2CCN(C(=O)CSc3nnc(C)c(=O)[nH]3)CC2)cc1 | -13 | 2% | 0 | 3 | -5.2
COc1cccc(N2CCN(C(=S)NCCc3ccccc3)CC2)c1 | -20 | -8% | 0 | 7 | 1.1
CC(=O)c1ccccc1C(=O)NCc1cccnc1 | -17 | -7% | -5 | -4 | -2.9
CCCC(=O)Nc1cccc(-c2nc3ccccc3c(=O)o2)c1 | · | 5.7µM* | 97 | 4 | 1.0
CNc1ccccc1C(C)(C)c1cc(-c2cccc(Br)c2)no1 | · | 6% | 2 | 8 | 12
O=C(Nc1ccc(N2CCOCC2)cc1)c1ccc2c(c1)OCO2 | · | -2% | 5 | -20 | 0.7
COc1ccccc1-n1cc(C(=O)c2cc(Cl)ccc2O)cc(C#N)c1=O | · | 8% | -12 | 3 | 0.2
Cc1c(CC(=O)O)c(=O)oc2cc(OCc3ccc(Br)cc3)ccc12 | · | · | -7 | · | 1.1
CC(=O)c1cc2c(cc1NC(=O)CN1CCOCC1)OCO2 | 9 | -8% | 1 | 0 | -0.6
CC(=O)NC1=NN(C(C)=O)C2(CCCC2)S1 | · | 1% | 6 | 15 | 0.7
O=C(NCCC1=CCCCC1)C1CC(=O)N(C2CCCCCC2)C1 (configuration not stated) | 3 | -1% | -5 | 8 | 3.5
CCCCn1c(N)c(N(CC(C)C)C(=O)CSC(C)C(=O)Nc2cc(C)on2)c(=O)[nH]c1=O (configuration not stated) | · | · | 1 | · | -1.4
CC(Cc1cnccn1)NCc1c(C(=O)N2CCCCCCC2)nc2ccc(Cl)cn12 (configuration not stated) | · | · | ? | · | 1.9
CC(C)CN(C(=O)CSc1nnc(-c2ccco2)o1)c1c(N)n(Cc2ccccc2)c(=O)[nH]c1=O | · | 1% | -6 | -1 | 1.2
COc1ccccc1C(=O)N/N=C(\C)c1ccc(NC(=O)Cc2ccccc2)cc1 | · | · | -3 | · | -0.1
COc1ccc(Br)cc1C(=O)NC(=S)Nc1ccc(Cl)c(C(=O)O)c1 | · | -7% | 0 | 4 | 2.1
CCOC(=O)c1sc(NC(=O)CN2CCN(c3ccccc3)CC2)nc1C | · | · | 41 | · | -1.2
COC(=O)c1ccc(C)c(NC(=O)CCc2ccc(OC)c(OC)c2)c1 | -4 | -3% | -3 | -6 | 2.3
Nc1nonc1NC(=O)CSc1nc2ccccc2s1 | -21 | -1% | 2 | 3 | -5.0
CC1(C)CC(NS(=O)(=O)c2ccc(Cl)cc2)CC(C)(C)N1 | · | · | 3 | · | -4.1
CN1CCN(S(=O)(=O)c2ccc(NS(=O)(=O)c3ccccc3)cc2)CC1 | · | · | -2 | · | -0.9
N#C/C(=C\c1ccc(-c2ccc(F)cc2)o1)C(=O)Nc1nc(-c2cccs2)cs1 | -10 | 7% | 5 | -1 | -1.5
COc1cc(/C=N/O)cc(Cl)c1OC | -39 | 6% | -3 | -2 | -1.4
COc1ccc(OCc2cc(C(=O)N(C)Cc3cc(C4CC4)n[nH]3)no2)c(Cl)c1 | · | · | 11 | · | 6.5
COC(=O)Cn1cnc2c(nnn2-c2ccc(C)cc2)c1=O | -28 | -2% | ? | 3 | -2.1
CC(C)(/C=N/O)N(O)C=C1C=CC(=O)C=C1 | · | 15% | 0 | · | -6.7
CC(=O)Oc1ccc(C(=O)[C@H]2[C@H]3C(=O)N(c4cccc5ccccc45)C(=O)[C@H]3[C@@H]3C=CC=NN32)cc1 | -21 | -3% | 6 | -3 | 9.1
Cc1ccc2cc(/C=N/NC(=O)[C@H]3C[C@@H]3c3ccccc3)c(Cl)nc2c1 | -2 | 4% | 72 | -11 | -4.2
COc1ccc(N2C3=C(C(=O)CC(C)(C)C3)C(c3ccccc3OC)C3=C2CC(C)(C)CC3=O)cc1 | · | 3% | 1 | · | -59
CCCCn1c(N)c(N(CC)C(=O)/C=C/c2ccco2)c(=O)[nH]c1=O | · | -7% | -9 | 0 | 1.5
COC(=O)[C@H]1CN(C(=O)c2ccccc2)C(=O)N1 | · | · | 0 | · | 0.8
O=C(N/C(=C/c1ccc(F)cc1)C(=O)N1CCCCC1)c1ccco1 | · | · | -3 | · | -0.8
CCN(CC)c1ncnnc1-c1ccccc1 | 1 | -8% | 7 | -1 | -0.3
CC1CN(S(=O)(=O)c2ccccc2)C(C)CN1S(=O)(=O)c1ccccc1 (configuration not stated) | -6 | 3% | · | 5 | -3.2
Cc1cc(C)c(S(=O)(=O)Nc2nccs2)c(C)c1 | · | · | 4 | · | 0.1
NC(=O)c1ccc2nc(-c3ccccc3)c(-c3ccccc3)nc2c1 | · | · | 5 | · | -2.5
O=C(CSc1nc2ccccc2c(=O)n1Cc1ccco1)NCc1ccccc1 | 21 | 2% | -3 | · | 0.2
CC(=O)N1CCC2(CC1)C(C#N)=C(N)Oc1n[nH]c(C(F)(F)F)c12 | -24 | 1% | -5 | -4 | -9.5
Cc1csc(SCC(=O)NC(=O)Cc2ccccc2)n1 | -35 | 0% | 3 | -3 | -0.1
CCCCN1C(=O)NC(c2ccc(OC)cc2)C(C(=O)OCc2ccccc2)=C1C (configuration not stated) | · | · | -1 | · | 0.0

(next part)
SMILES | YopH PTP inh | Mtb H37Rv | Mtb betalactam | Arbovirus anti | RecA splice inh | others
Cc1ccc2c(Cl)cc(Cl)c(OCC(=O)NC(C)(C)C)c2n1 | · | 12µM* | 92 | -19 | 11
Cc1nnc(NC2=NCCCCC2)o1 | 6 | -3% | 88 | 2 | -1.3
Clc1ccccc1-c1ccc(CN2CCN(c3ccccc3)CC2)o1 | -3 | · | -3 | 4 | 16
O=C(CSc1nnc(C2CCCCC2)o1)Nc1ccccc1Cl | · | · | 2 | · | 1.6
CNC(=O)Oc1ccc(C(=O)N2c3ccccc3NC(=O)C2C)cc1 (configuration not stated) | · | · | 37 | · | -0.2
CC1CCN(CCCCOc2cccc(Br)c2)CC1 | -8 | -6% | -5 | -10 | -5.6
CC1CCCN(c2nc3c(c(=O)[nH]c(=O)n3C)n2CCSc2nc3ccccc3o2)C1 (configuration not stated) | -34 | 9% | -1 | 3 | 2.4 | Arbovirus anti repeat=5
Cc1ccc(NC(=O)CSCC(=O)OC(C)C(=O)Nc2ccc(S(N)(=O)=O)cc2)c(C)c1 (configuration not stated) | · | · | 2 | · | 0.0
Cc1ccc(CS(=O)(=O)CCC(=O)NCCC(C)C)cc1 | -52 | 5% | -5 | 3 | -1.1
CC(C)=CC(=O)Nc1ccc(Cl)cc1 | · | 1% | 9 | 1 | -0.7
S=C(Nc1ccc(Cl)c(Cl)c1)N1CCCC1 | · | · | -1 | · | 1.3
O=C(c1ccc2c3c(cccc13)CC2)N1CCOCC1 | -14 | 3% | 3 | 8 | 2.7
CC(=O)Nc1cc2c(cc1NC(=O)Cn1nc(-c3ccc(F)cc3)ccc1=O)OCCO2 | · | · | 2 | · | -1.6
Cc1cccc(Nc2nc(N)c([N+](=O)[O-])c(N3CCN(C)CC3)n2)c1 | 5 | 6% | 5 | 12 | 2.7
Nc1nc(N)c(N=O)c(OCC2CCCCC2)n1 | · | · | 73 | · | 0.0

Among those listed so far, 3 contain a COOH group.
SMILES | YopH PTP inh | Mtb H37Rv | Mtb betalactam | Arbovirus anti | RecA splice inh | others
N#C/C(=C\c1ccc(OCc2ccc(Br)cc2)cc1)C(=O)Nc1cccc(C(=O)O)c1 | · | · | 67 | · | 19
Cc1c(CC(=O)O)c(=O)oc2cc(OCc3ccc(Br)cc3)ccc12 | · | · | -7 | · | 1.1
COc1ccc(Br)cc1C(=O)NC(=S)Nc1ccc(Cl)c(C(=O)O)c1 | · | -7% | 0 | 4 | 2.1

(more compounds)
SMILES | YopH PTP inh | Mtb H37Rv | Mtb betalactam | Arbovirus anti | RecA splice inh | others
O=C(Nc1ccc2c(c1)OCCO2)c1cc(-n2cnnc2)ccc1Cl | -2 | 9% | -13 | 2 | 1.6
CCOc1ccc(CCNC(=O)C2CCCN(c3ncnc4c3nc3n4CCCCC3)C2)cc1 (configuration not stated) | · | · | 5 | · | -1.8
O=C(Nc1nc2ccc(S(=O)(=O)N3CCCC3)cc2s1)c1ccco1 | -21 | 0% | 1 | -5 | 0.2
Cc1cc(NC(=O)CN(C)S(=O)(=O)c2ccc(-c3ccc(=O)[nH]n3)s2)ccc1Br | · | · | 1 | · | -0.1
CSCC[C@H](NC(=O)NCc1cccs1)C(=O)O | -35 | 9% | -8 | -1 | ·
Cc1ccc(CNC(=O)[C@H](Cc2ccccc2)NC(=O)C2CCNCC2)cc1 | · | · | -9 | · | 1.4
COc1cc(OC)c(C(=O)OCC(=O)N2CCOCC2)cc1OC | · | · | 4 | · | -3.0
CCN(CC)S(=O)(=O)c1ccc(C(=O)NCc2ccc(C)cc2)cc1 | -122 | 2% | -12 | 2 | 2.3
COc1ccc(CNc2nc3ccccc3s2)cc1OC | · | · | 4 | · | -0.3
O=C(NCc1ccco1)c1cc(NS(=O)(=O)c2cccc([N+](=O)[O-])c2)ccc1O | · | 5% | 2 | 3 | -2.0
O=C1CC(c2ccc(Cl)cc2)n2nc(N3C(=O)CCC3=O)nc2N1 (configuration not stated) | -45 | -8% | -5 | 4 | 0.7
CC(C)(C)c1ccc(C(=O)O/N=C(\N)c2ccccn2)cc1 | · | · | 3 | · | 3.3
FC(F)(F)c1cnc(C(c2ccccc2)c2ncn[nH]2)c(Cl)c1 (configuration not stated) | · | -1% | -6 | 0 | -2.9
Cc1ccc(C)c(N2C(=N)S/C(=C\c3ccc(-c4ccccc4C(=O)O)o3)C2=O)c1 | · | 0% | -7 | 20 | -8.7
COc1ccc(NS(=O)(=O)c2cccc(C(=O)NCC3(N4CCCCC4)CCCCC3)c2)cc1 | · | · | 3 | · | -2.1
COC(=O)/C(C#N)=C/c1ccc(C)o1 | · | 1% | 3 | -1 | -2.8
